# High-throughput results deposited in PubChem BioAssay by Broad Institute.
# Vaccinia stage: Vaccinia orthopox stage-specific inhibition. Vaccinia-infected cells, mCherry/Venus stage reporter fluorescence; hits give low values; some inactives read as strong as hits. actives 0.01% (n = 89,000). activity change (mCherry), % (concentration not given with the values);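 active = mCherry past -33% and 40 or more points under the early reporter, replicates agreeing; inconclusive = past -33% without that gap or agreement; tested in A549 cells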;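 note: scaled between vehicle wells and reference inhibitor wells; 23 nL library stock went into each well; one replicate is shown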
# Vaccinia stage Venus: recorded beside Vaccinia stage, whose call it bears; activity change (Venus), %; measured here: Venus reporter, other viral stage;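 negative = less Venus signal; first of two replicates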
# An asterisk follows results filed as active; ? = inconclusive; nt = no result given. Some of the compounds tested (hit frequency here may not be typical).
SMILES,Vaccinia stage,Vaccinia stage Venus
C[C@H]1CN([C@@H](C)CO)C(=O)c2cccc(NC(=O)C3CC3)c2O[C@@H]1CN(C)Cc1ccc(Cl)c(Cl)c1,-32.6,-15.0
CO[C@H]1CN(C)C(=O)c2ccc(NS(C)(=O)=O)cc2OC[C@H](C)N(C(=O)C2CC2)C[C@H]1C,-1.3,-3.0
CCS(=O)(=O)Nc1ccc2c(c1)C(=O)N(C)C[C@H](OC)[C@@H](C)CN(Cc1ccccn1)[C@@H](C)CO2,10.7,6.4
COC(=O)C[C@@H]1CC[C@H]2[C@H](COc3ccc(NC(=O)c4cccc(F)c4)cc3C(=O)N2C)O1,-3.4,1.7
CN(C)C(=O)C[C@@H]1CC[C@@H]2[C@@H](COc3ccc(NC(=O)Nc4cccc(Cl)c4)cc3C(=O)N2C)O1,3.5,-1.2
C[C@H]1CN([C@@H](C)CO)S(=O)(=O)c2ccc(-c3ccc(F)cc3)cc2O[C@H]1CN(C)C(=O)C1CCOCC1,-5.8,-2.2
COc1ccc(NC(=O)N(C)C[C@H]2Oc3c(cccc3N(C)C)C(=O)N([C@@H](C)CO)C[C@H]2C)cc1,5.9,4.8
Cc1noc(C)c1NC(=O)N(C)C[C@@H]1Oc2ccc(NC(=O)Cn3cnnn3)cc2C(=O)N([C@@H](C)CO)C[C@H]1C,8.1,10.0
CCNC(=O)Nc1ccc2c(c1)C(=O)N(C)[C@H]1CC[C@@H](CC(=O)NC3CCCCC3)O[C@H]1CO2,5.2,-2.1
C[C@@H]1CN([C@H](C)CO)C(=O)c2cc(NC(=O)Nc3ccc(C(F)(F)F)cc3)ccc2O[C@@H]1CN(C)CC1CCCCC1,0.3,-0.1
C[C@@H]1CN([C@@H](C)CO)C(=O)c2cc(/C=C/c3ccccc3)cnc2O[C@H]1CN(C)C(=O)c1ccccc1,-27.1,-23.4
C[C@H]1CN([C@@H](C)CO)C(=O)c2cc(NC(=O)CCCN(C)C)ccc2O[C@H]1CN(C)S(=O)(=O)c1ccc(Cl)cc1,2.1,3.5
COc1ccccc1CNC(=O)C[C@@H]1C[C@H]2c3cc(NC(=O)c4cccnc4)ccc3O[C@H]2[C@H](CO)O1,-3.8,13.4
C[C@@H]1CN([C@@H](C)CO)C(=O)c2cccc(NC(=O)c3ccc(-c4nccs4)cc3)c2O[C@H]1CN(C)S(=O)(=O)c1ccc(Cl)cc1,0.1,-3.6
CN(C)C(=O)C[C@@H]1C[C@H]2c3cc(NC(=O)c4ccc5c(c4)OCO5)ccc3O[C@H]2[C@@H](CO)O1,15.0,11.6
C[C@H]1CN([C@@H](C)CO)C(=O)CCCn2nncc2CO[C@@H]1CN(C)C(=O)Oc1ccccc1,7.3,14.0
Cc1ccc(S(=O)(=O)N(C)C[C@H]2OCCCC[C@@H](C)Oc3ccc(NS(=O)(=O)c4ccc(Cl)cc4)cc3C(=O)N([C@H](C)CO)C[C@H]2C)cc1,-26.8,-15.7
N#C[C@H]1[C@H](c2ccccc2-c2ccccc2)[C@@H](CO)N1C(=O)NC1CCCCC1,-17.4,-6.9
C[C@@H]1CN([C@H](C)CO)C(=O)c2c(c3ccccc3n2C)-c2ccccc2CO[C@H]1CN(C)C(=O)[C@H](C)c1ccccc1,?,nt
Cc1ccc(S(=O)(=O)N[C@@H]2C=C[C@@H](CC(=O)NCc3ccccc3F)O[C@@H]2CO)cc1,-15.7,-5.2
O=C(c1ccccn1)N1CC(=O)N2[C@H](CO)[C@H](c3ccc(C#CCc4ccccc4)cc3)[C@@H]2C1,11.0,4.9
C[C@H](CO)N1C[C@H](C)[C@H](CN(C)Cc2ccncc2)Oc2c(NC(=O)Nc3ccccc3)cccc2C1=O,5.1,6.0
COc1ccc2c3c(n(C)c2c1)[C@@H](CO)N(CC1CCCC1)CC31CCN(C(=O)CN(C)C)CC1,-29.8,-17.1
COc1ccccc1NC(=O)N[C@H]1C=C[C@H](CC(=O)NCc2ccc(Cl)c(Cl)c2)O[C@H]1CO,-2.0,4.1
CCNC(=O)C[C@@H]1CC[C@H]2[C@H](COc3ccc(NC(=O)Nc4ccccc4Cl)cc3C(=O)N2C)O1,-5.4,-3.8
# (continued)
SMILES,Vaccinia stage,Vaccinia stage Venus
COc1cccc(S(=O)(=O)N2CCCCN3[C@H](CO)[C@@H](c4ccc(C#CC(C)C)cc4)[C@@H]3C2)c1,4.7,-13.1
Cc1noc(C)c1NC(=O)N(C)C[C@H]1Oc2ccc(NS(=O)(=O)c3cn(C)cn3)cc2CC(=O)N([C@@H](C)CO)C[C@@H]1C,-5.8,-3.5
CO[C@H]1CN(C)C(=O)c2cc(NS(=O)(=O)CC(F)(F)F)ccc2OC[C@H](C)N(Cc2nccs2)C[C@H]1C,-3.3,8.9
CCCNC(=O)[C@@H]1[C@@H](CO)[C@@H]2Cn3c(ccc(-c4cccc(F)c4)c3=O)[C@@H]2N1C(C)=O,8.5,5.6
O=C(Nc1cc(F)ccc1F)N1C[C@H]2[C@@H](c3ccccc31)[C@H](CO)N2Cc1cccnc1,12.3,4.3
Cc1noc(C)c1NC(=O)N(C)C[C@H]1Oc2ccc(NC(=O)C3CCCCC3)cc2CC(=O)N([C@@H](C)CO)C[C@H]1C,1.0,0.2
O=S(=O)(c1ccccc1F)N1CCCCN2[C@@H](CO)[C@@H](c3ccc(-c4ccncc4)cc3)[C@@H]2C1,23.7,-2.2
CO[C@H]1CN(C)C(=O)c2ccc(NC(=O)C3CC3)cc2OC[C@H](C)N(C(=O)NC(C)C)C[C@@H]1C,8.3,4.7
C[C@@H]1CN([C@@H](C)CO)C(=O)c2cc(C#CCN(C)C)cnc2O[C@@H]1CN(C)C(=O)CN1CCOCC1,28.9,10.0
O=C(C[C@H]1C=C[C@H](NC(=O)C2CCOCC2)[C@H](CO)O1)NCCc1cscn1,-0.1,1.2
Cc1noc(C)c1NC(=O)N(C)C[C@H]1OCCCC[C@H](C)Oc2ccc(NC(=O)NC(C)C)cc2C(=O)N([C@@H](C)CO)C[C@@H]1C,11.8,12.5
Cc1noc(C)c1NC(=O)Nc1ccc2c(c1)C(=O)N([C@H](C)CO)C[C@H](C)[C@@H](CN(C)Cc1ccc(C(F)(F)F)cc1)OCCCC[C@@H](C)O2,-4.3,-6.1
O=C(C[C@H]1C[C@H]2c3cc(NC(=O)Nc4ccccc4F)ccc3O[C@H]2[C@H](CO)O1)NCc1ccncc1,5.0,6.2
Cc1ccc(S(=O)(=O)N(C)C[C@H]2OCCCC[C@H](C)Oc3ccc(NC(=O)Nc4c(C)noc4C)cc3C(=O)N([C@H](C)CO)C[C@H]2C)cc1,28.8,15.6
C[C@@H]1CN([C@@H](C)CO)S(=O)(=O)c2ccc(-c3ccc(C#N)cc3)cc2O[C@H]1CN(C)C(=O)CN(C)C,-1.6,-2.8
O=C(NC[C@H]1[C@H](c2ccccc2)[C@H](CO)N1C(=O)Cc1cccnc1)C1CC1,15.9,11.8
CC(=O)N(C)C[C@H]1Oc2cc(C#CC(C)C)ccc2S(=O)(=O)N([C@H](C)CO)C[C@@H]1C,-3.7,-3.7
C[C@@H]1CN([C@H](C)CO)C(=O)c2cc(-c3ccc(F)cc3)cnc2O[C@H]1CN(C)Cc1cncnc1,0.4,0.2
O=C(C[C@H]1CC[C@H]2[C@@H](COC[C@@H](O)CN2Cc2ccc(Oc3ccccc3)cc2)O1)N1CCCCC1,?,nt
O=C(NC1CCCC1)N1CC2(C1)[C@H](c1ccccc1)[C@@H](CO)N2S(=O)(=O)Cc1ccccc1,2.3,5.9
CCCN(C)C[C@@H]1Oc2cc(C#Cc3ccccn3)ccc2S(=O)(=O)N([C@H](C)CO)C[C@@H]1C,12.6,11.5
C[C@@H]1CCCCO[C@H](CN(C)Cc2ccccc2)[C@H](C)CN([C@H](C)CO)C(=O)c2cc(N(C)C)ccc2O1,-22.9,-20.6
CO[C@H]1CC[C@H]2CCOc3ccc(C#N)cc3C(=O)N(C)CCCC(=O)N(C)C[C@H]1O2,21.8,2.9
Cc1noc(C)c1NC(=O)N[C@H]1CC[C@H](CC(=O)N2CCCCC2)O[C@H]1CO,8.9,3.4
COc1ccc(S(=O)(=O)N(C)C[C@@H]2Oc3c(NC(=O)c4nc5ccccc5s4)cccc3C(=O)N([C@@H](C)CO)C[C@@H]2C)cc1,3.3,0.0
# Carrying on.
SMILES,Vaccinia stage,Vaccinia stage Venus
COC(=O)C[C@@H]1CC[C@@H]2[C@H](COc3ccc(NC(=O)Nc4cccc(F)c4)cc3C(=O)N2C)O1,6.1,6.1
C[C@@H]1CN([C@H](C)CO)C(=O)c2cc(C#CCc3ccccc3)cnc2O[C@@H]1CN(C)C(=O)C1CCC1,15.4,26.3
CCCNC(=O)N1CC2(C1)[C@@H](c1ccccc1)[C@@H](CO)N2CC1CCOCC1,7.3,10.4
CCC(=O)Nc1ccc2c(c1)C(=O)N(C)C[C@H](OC)[C@@H](C)CN(CC1CC1)[C@@H](C)CO2,-0.5,-3.8
C[C@@H]1CN([C@H](C)CO)C(=O)c2ccccc2-c2ccccc2CO[C@H]1CN(C)C(=O)C1CC1,16.9,4.1
C[C@@H]1CN([C@@H](C)CO)C(=O)c2cc(NC(=O)C3CC3)ccc2O[C@H]1CN(C)S(=O)(=O)c1cccs1,5.6,-1.3
COCC(=O)N(C)C[C@H]1Oc2cc(C#C[C@H](C)O)ccc2S(=O)(=O)N([C@H](C)CO)C[C@H]1C,8.0,8.6
CCC(=O)N1[C@@H]2c3ccc(-c4ccncc4)c(=O)n3C[C@H]1[C@H](CO)[C@H]2C(=O)N1CCc2ccccc2C1,3.7,0.7
O=C(O)C[C@H]1C=C[C@@H](NC(=O)CCN2CCCCC2)[C@H](CO)O1,34.8,33.1
CC(C)NC(=O)Nc1ccc2c(c1)C(=O)N([C@@H](C)CO)C[C@@H](C)[C@H](CN(C)S(=O)(=O)c1ccccc1)OCCCC[C@H](C)O2,-2.3,-8.1
O=C(NCC[C@@H]1CC[C@@H](NC(=O)c2ccccc2F)[C@@H](CO)O1)c1cnccn1,6.3,4.7
C[C@@H]1CN([C@H](C)CO)C(=O)CCCn2cc(nn2)CO[C@H]1CN(C)Cc1ccc(-c2ccccc2)cc1,-24.2,-16.2
COc1ccc2c3c([nH]c2c1)[C@@H](CO)N(Cc1ccc(Cl)cc1)CC31CCN(Cc2ccccc2)CC1,-23.6,-16.2
C[C@@H]1CN([C@@H](C)CO)C(=O)c2cc(NC(=O)Nc3cccc4ccccc34)ccc2O[C@@H](C)CCCCO[C@@H]1CN(C)Cc1ccccc1,-16.1,-10.2
CN1CCN(C(=O)C[C@H]2CC[C@@H]3[C@H](COC[C@H](O)CN3C(=O)Nc3ccc(Cl)cc3)O2)CC1,6.0,-2.9
COc1ccc(NC(=O)Nc2cccc3c2O[C@H](CN(C)C(=O)Nc2c(C)noc2C)[C@@H](C)CN([C@@H](C)CO)C3=O)cc1,0.2,-3.7
CO[C@@H]1CN(C)C(=O)c2ccc(NC(=O)CC(F)(F)F)cc2OC[C@H](C)N(C(=O)C2CC2)C[C@@H]1C,6.6,3.3
C[C@@H]1CN([C@@H](C)CO)C(=O)Cc2cc(NS(C)(=O)=O)ccc2O[C@H]1CN(C)S(=O)(=O)c1ccccc1,18.2,15.1
C[C@H]1CN([C@@H](C)CO)C(=O)c2cccc(NS(=O)(=O)c3cn(C)cn3)c2O[C@@H]1CN(C)CC1CCCCC1,6.3,-0.9
O=C(CC1CC1)N[C@@H]1CC[C@H](CCNS(=O)(=O)c2ccc(F)cc2)O[C@@H]1CO,11.1,8.3
C[C@@H]1CN([C@@H](C)CO)C(=O)c2cc(NC(=O)NC3CCCCC3)ccc2O[C@H]1CN(C)C(=O)Nc1ccc(C(F)(F)F)cc1,3.0,8.6
C[C@@H]1CN([C@H](C)CO)C(=O)Cc2cc(NC(=O)CCN3CCOCC3)ccc2O[C@@H]1CN(C)Cc1ccc(C(=O)Nc2ccccc2N)cc1,-15.2,0.6
C[C@@H]1CN([C@H](C)CO)C(=O)c2cc(NC(=O)Nc3cccc4ccccc34)ccc2O[C@@H](C)CCCCO[C@H]1CN(C)Cc1ccc(Cl)c(Cl)c1,-3.3,1.7
C/C=C/c1ccc([C@H]2[C@@H](CO)N3CCCCN(C(=O)Nc4ccc(F)cc4)C[C@@H]23)cc1,?,nt
CO[C@H]1CN(C)C(=O)c2ccc(NC(=O)Nc3cccc(F)c3)cc2OC[C@@H](C)N(C(C)=O)C[C@H]1C,7.9,6.0
CN(C)C(=O)c1ccc(-c2ccc3c(c2)[C@@H]2[C@@H](CCN2Cc2ccc4c(c2)OCO4)[C@H](CO)N3)cc1,-28.9,-14.0
COc1cccc(NC(=O)N2CC(=O)N3[C@H](CO)[C@@H](c4ccc(C#CC5CCCC5)cc4)[C@H]3C2)c1,?,nt
COc1ccc(-c2ccc3c(c2)O[C@H](CN(C)C)[C@H](C)CN([C@@H](C)CO)S3(=O)=O)cc1,1.4,1.8
OC[C@H]1[C@@H](c2ccc(C#Cc3ccccc3)cc2)[C@@H]2CN(CC3CCOCC3)CCCCN12,?,nt
O=C(C[C@@H]1C=C[C@@H](NC(=O)c2cccnc2)[C@H](CO)O1)NCc1ccc(Cl)c(Cl)c1,-6.7,-1.6

# Structural class: those above containing two or more sulfur atoms.
SMILES,Vaccinia stage,Vaccinia stage Venus
C[C@@H]1CN([C@@H](C)CO)C(=O)c2cccc(NC(=O)c3ccc(-c4nccs4)cc3)c2O[C@H]1CN(C)S(=O)(=O)c1ccc(Cl)cc1,0.1,-3.6
Cc1ccc(S(=O)(=O)N(C)C[C@H]2OCCCC[C@@H](C)Oc3ccc(NS(=O)(=O)c4ccc(Cl)cc4)cc3C(=O)N([C@H](C)CO)C[C@H]2C)cc1,-26.8,-15.7
CO[C@H]1CN(C)C(=O)c2cc(NS(=O)(=O)CC(F)(F)F)ccc2OC[C@H](C)N(Cc2nccs2)C[C@H]1C,-3.3,8.9
COc1ccc(S(=O)(=O)N(C)C[C@@H]2Oc3c(NC(=O)c4nc5ccccc5s4)cccc3C(=O)N([C@@H](C)CO)C[C@@H]2C)cc1,3.3,0.0
C[C@@H]1CN([C@@H](C)CO)C(=O)c2cc(NC(=O)C3CC3)ccc2O[C@H]1CN(C)S(=O)(=O)c1cccs1,5.6,-1.3
C[C@@H]1CN([C@@H](C)CO)C(=O)Cc2cc(NS(C)(=O)=O)ccc2O[C@H]1CN(C)S(=O)(=O)c1ccccc1,18.2,15.1
